Compound activity (PubChem)
Mtb betalactam – beta-lactam sensitization of Mtb H37Rv; M. tuberculosis H37Rv growth with meropenem, percent inhibition; hits of this screen are not shown here; inhibition, % at 25 µM; actives 0.27% (n = 330,000);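 active = about 74% or more and at least 40 points above the plate without the antibiotic, then above 30% in a dose series; inconclusive = first-round hits that could not be retested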;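 also: growth measured after seven days incubation then overnight dye step; 0% = bacteria only wells and 100% = bacteria with antibiotic; twin plates without the antibiotic show which effects depend on it; some results filed as inactive read as strong as hits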
* marks the source's active call; other numbers are inactive results; ? = inconclusive. An excerpt. The share of hits here may be higher or lower than overall.

SMILES	Mtb betalactam
O=C(COC(=O)c1ccc(Cl)c(S(=O)(=O)N2CCCCC2)c1)NCC1CCCCC1	-2
O=S(=O)(c1cnccc1N1CCN(CCO)CC1)N1CCCCC1	?
Cc1ccc(S(=O)(=O)N[C@H](C(=O)NC2CCC(C)CC2)C(C)C)cc1 (stereo not given in full)	-5
O=C(CN1CCCC1)Nc1ccc(Br)cc1[N+](=O)[O-]	5
Cc1occc1C(=O)N1CCN(S(=O)(=O)c2ccc(F)cc2)CC1	-11
CC(C(=O)Nc1ccc(S(=O)(=O)N2CCCC2)cc1)N1CCN(c2ccccc2O)CC1 (stereo not given)	-10
Cn1nc(C(=O)OCC(=O)Nc2ccc(F)cc2Cl)c2ccccc2c1=O	-1
COc1ccccc1Nc1nnc(SCC(=O)NC2CCCC2)s1	-2
O=C(CN1CCN(S(=O)(=O)c2ccccc2)CC1)N1CCCCC1	-3
COC(=O)C1CCN(CC(=O)Nc2ccc3c(c2)OCCO3)CC1	-4
CCCn1c(SCC(=O)NC(=O)NCc2ccccc2)n[nH]c1=O	0
COc1ccccc1N(C)S(=O)(=O)c1ccc(Cl)c(C(=O)NCc2ccco2)c1	-4
Cc1ccccc1OCC(=O)OCC(=O)NCc1ccccc1Cl	-5
O=C(Nc1ccc(C(F)(F)F)cc1[N+](=O)[O-])O[C@H]1[C@H](Cc2ccccc2)NS(=O)(=O)[C@H]2C[C@@H]3C=C[C@]12O3	4
O=C(COc1ccc(-c2nnco2)cc1)Nc1ccc(F)c(Cl)c1	-7
CC(C)[C@H](NC(=O)c1ccco1)C(=O)OCC(=O)Nc1ccc(Cl)c(S(=O)(=O)N(C)C)c1	-6
COc1cc(NCC(=O)Nc2cccc(S(=O)(=O)N3CCCCC3)c2)cc(OC)c1OC	-9
COc1ccc(S(=O)(=O)N2CCOCC2)cc1NC(=O)Cc1c(F)cccc1Cl	0
CCc1nn2c(=O)c(S(=O)(=O)Nc3ccc(C(C)C)cc3)c(C)nc2s1	0
CCOc1ccccc1OCCCC(=O)N1CCN(S(=O)(=O)c2ccc(C)cc2C)CC1	-12
COc1ccc(NC(=O)CN2CCCCCC2)cc1OC	-1
CCC(C(=O)OC(C)C)c1ccc2ccccc2c1 (stereo not given)	-3
CCCN(CC(=O)Nc1cc(Cl)ccc1Cl)C(=O)c1ccc2n[nH]nc2c1	2
O=C(Cn1c(=O)cnc2ccccc21)Nc1ccccc1N1CCOCC1	-2
CCCC(CNC(=O)COC(=O)C1=NNC(=O)CC1)c1ccc(Cl)cc1Cl (stereo not given)	-1

An excerpt from above in order of heavy-atom count, largest number first:
SMILES	Mtb betalactam
COc1cc(NCC(=O)Nc2cccc(S(=O)(=O)N3CCCCC3)c2)cc(OC)c1OC	-9
COc1ccc(S(=O)(=O)N2CCOCC2)cc1NC(=O)Cc1c(F)cccc1Cl	0
Cn1nc(C(=O)OCC(=O)Nc2ccc(F)cc2Cl)c2ccccc2c1=O	-1
Cc1occc1C(=O)N1CCN(S(=O)(=O)c2ccc(F)cc2)CC1	-11
O=C(CN1CCCC1)Nc1ccc(Br)cc1[N+](=O)[O-]	5

Continued.
SMILES	Mtb betalactam
COc1ccc(NC(=O)COC(=O)c2ccc3c(c2)OCO3)c(OC)c1	2
C=CC[C@@H](Cc1ccc(F)cc1)C(=O)OC[C@H]1CCCN1C(=O)[C@@H](CC=C)CC(=O)N[C@H](CO)Cc1ccccc1	-2
CC1CCN(C(=O)COC(=O)C(C)N2C(=O)c3ccccc3C2=O)CC1 (stereo not given)	-6
COc1cc2cc(CCCOC(=O)CCCC(=O)O)oc(=O)c2cc1OC	1
COc1ccccc1NC(=O)c1ccc(S(=O)(=O)N(C)c2ccccc2OC)cc1	1
CCOC(=O)[C@H]1[C@H]2COc3ccc(Cl)cc3[C@@H]2N2C(=O)[C@@H](C)NC(=O)[C@@]12C	-8
CC(C(=O)N1CCc2ccccc21)N1CCN(c2cccc(C(F)(F)F)c2)CC1 (stereo not given)	7
Cn1c(N)c(C(=O)COC(=O)Cc2c(F)cccc2Cl)c(=O)n(C)c1=O	-6
CC(Sc1nnc(-c2ccccc2F)n1C1CC1)C(=O)N1CCCC1 (stereo not given)	0
COC(=O)c1ccc(CNC(=O)CSC(C)C(=O)Nc2cc(C)on2)cc1 (stereo not given)	0
O=C(c1cccc(S(=O)(=O)N2CCOCC2)c1)N(CCc1ccccc1)Cc1ccccc1	0
Cc1ccc(C(=O)CCC(=O)Nc2cc(C)ccn2)cc1	-4
CC[C@@]1(C(=O)OC)N[C@H](CN(C)C(=O)Nc2ccc(C)cc2)[C@@H]2C(=O)N(Cc3ccccc3)C(=O)[C@@H]21	0
COc1ccc(/C(N)=N/OC(=O)CC2CCCCC2)cc1	?
Cc1ccc(S(=O)(=O)N2CCOCC2)cc1NC(=O)CSc1nnc(C2CC2)n1C1CC1	-4
O=C(CNC(=O)c1ccc(Br)o1)NNC(=O)COc1ccccc1Cl	-5
CC1CCCC(C)N1C(=O)COC(=O)CNC(=O)c1ccccc1F (stereo not given)	-3
CN(C)S(=O)(=O)c1cc(NC(=O)COC(=O)CC2CC3CCC2C3)ccc1Cl (stereo not given)	-3
O=S(=O)(c1cccc2cccnc12)N1CCCCC1	?
CN1CCN(CCC=C2c3ccccc3Sc3ccc(S(=O)(=O)N(C)C)cc32)CC1	-1
COc1ccccc1NS(=O)(=O)c1cc(NC(=O)COc2ccccc2)ccc1N1CCOCC1	-1
O=C(CN(C(=O)CCC(=O)Nc1nccs1)c1ccccc1F)NCc1ccc2c(c1)OCO2	-7
O=C(COC(=O)c1ccc(O)cc1O)Nc1ccc2c(c1)OCCO2	-3
Cc1ccc(CSc2nnc(NC(=O)C3=COCCO3)s2)cc1	-7
CN(C(=O)COC(=O)CNC(=O)c1cccs1)c1c(N)n(Cc2ccccc2)c(=O)[nH]c1=O	-5
Following part.
SMILES	Mtb betalactam
CN(C(=O)CSc1nnc(-c2ccc(F)cc2)n1C)C1CCS(=O)(=O)C1 (stereo not given)	0
CCOc1ccccc1NC(=O)COC(=O)C(Cc1ccccc1)NC(=O)c1ccco1 (stereo not given)	-1
COc1cccc(-c2c(-c3cc(OC)cc(OC)c3)n(C)c3ccc(-c4cnc(OC)nc4)cc23)c1	47
O=C(CN1C(=O)NC2(CCCCC2)C1=O)N1CCN(S(=O)(=O)c2cccc([N+](=O)[O-])c2)CC1	-3
CCN(c1ccc(C(=O)CN2C(=O)NC3(CCOc4ccccc43)C2=O)cc1)S(C)(=O)=O (stereo not given)	-3
O=C(NCc1cc(C(F)(F)F)ccc1Cl)c1cccc2c1C(=O)c1ccc(-c3ccc(OC(F)(F)F)cc3)cc1S2(=O)=O	5
COc1ccc(C(=O)OCC(=O)Nc2ccc3c(c2)OCCO3)c(OC)c1	-3
Cc1ccc(C(=O)OCC(=O)NCCc2ccc(S(N)(=O)=O)cc2)o1	-5
Cc1c(C(=O)NC2CC2)oc2ccccc12	-6
CC(C)(C)OC(=O)NCCCC[C@@H](C(=O)NCCCCCCCCCCC(=O)N1CCN(C(=O)OC(C)(C)C)CC1)n1cc(CCCC(=O)O)nn1	-4
COC(c1ccc(Cl)cc1)(c1ccc(Cl)cc1)C(Oc1nc(C)cc(C)n1)C(=O)O (stereo not given)	-1
COC(=O)C1=C(c2ccc(F)cc2OCc2ccccc2)C[C@@H]2CC[C@H]1N2C(=O)N1CCCCC1	9
Cc1ccc(C)c(OCCC(=O)OC(C)C(=O)Nc2c(C)n(C)n(-c3ccccc3)c2=O)c1 (stereo not given)	3
Cc1cc(C)c(NC(=O)c2ccc3c(c2)NC(=O)C(C)S3)c(C)c1 (stereo not given)	-9
O=C(COc1ccccc1[N+](=O)[O-])NCCCN1CCCC1=O	-6
CC(=O)C1=C(c2ccccc2)NC(=O)NC1c1ccc2c(c1)OCO2 (stereo not given)	2
Cc1cc(C)c(C2=CC(=O)C[C@H](c3ccc4c(c3)OCO4)C2)c(C)c1	54
CC(=O)c1cccc(OC(=O)C2=CC=CN3CCS(=O)(=O)N=C23)c1	-1
O=C(Nc1cccc(S(=O)(=O)N2CCOCC2)c1)C1CCCC1	-5
Cc1cc(Cl)ccc1OCCCC(=O)OCC(=O)Nc1cccc(S(N)(=O)=O)c1	-4
Cc1cc(C(=O)NC2CCCc3c2cnn3-c2ccc(C(C)(C)C)cc2)nn1C (stereo not given)	43
Cc1cccc(OCC(=O)NNC(=O)c2ccc3nc[nH]c3c2)c1	-4
CCCCNc1c(-c2ccc(SC3CCCCC3)c(OC)c2)nc2ccc(C)cn12	99
NC(=O)COc1ccc(/C=C2\C(=O)ON=C2c2ccccc2)cc1	3
COc1ccccc1NS(=O)(=O)c1cccc(NC(=O)CCNC(=O)c2ccccc2OC)c1	2
(next part)
SMILES	Mtb betalactam
COc1cccc([C@@H]2CC=C(C(=O)O)[C@H](c3ccc(Br)cc3)N2S(=O)(=O)c2ccc(C)cc2)c1	-3
Cc1cc(C)c(C)c(S(=O)(=O)N2CCC(C(=O)N3CCCC3)CC2)c1C	4
O=[N+]([O-])c1ccccc1Nc1nc(-c2cccnc2)cs1	2
C[C@H]1[C@H](NC(=O)C(=NOC(C)(C)C(=O)O)c2csc(N)n2)C(=O)N1S(=O)(=O)O	0
CCOC(=O)[C@H]1[C@H]2COc3ccc(OC)cc3[C@@H]2N2C(=O)CN(C)C(=O)[C@@]12C	-2
CC(Sc1nnc2ccccn12)C(=O)Nc1ccc(N2CCOCC2)cc1 (stereo not given)	-3
O=C(CNC(=O)c1ccc(Br)o1)NNC(=O)c1ccc(Cl)cc1	8
CN(C(=O)CSc1ccc2c(c1)OCCO2)c1ccccc1	1
O=C(Nc1cccc(Cl)c1)C1=CC=CN2CCS(=O)(=O)N=C12	-7
CN(C)S(=O)(=O)c1cccc(NC(=O)c2ccc(S(=O)(=O)N3CCCCC3)cc2)c1	-2
CCOC(=O)Nc1cccc(OCC(=O)Nc2ccc3c(c2)CCC3)c1	4
CC(C)COc1cccc(C(=O)N2CCN(C(=O)c3ccco3)CC2)c1	-9
CCC1Nc2ncnc(N3CCCCC3)c2N(Cc2ccc(OC)cc2)C1=O (stereo not given)	-9
O=C(NCCN1CCOCC1)c1cccc(S(=O)(=O)Nc2ccc(F)cc2)c1	0
COCCCN(C(=O)C1CCCCC1)c1c(N)n(Cc2ccccc2)c(=O)[nH]c1=O	-8
CN(C(=O)COC(=O)c1cc2ccccc2cc1O)C1CCCCC1	89
CC1CC(C)CN(C(=O)COC(=O)c2nccnc2N)C1 (stereo not given)	2
COc1ccc([N+](=O)[O-])cc1NC(=O)C(C)OC(=O)CC1CCCC1 (stereo not given)	-1
O=C(CN1C(=O)NC2(CCCCC2)C1=O)NCCc1ccccc1	-7
CC(=O)c1cccc(NC(=O)COC(=O)CCNS(=O)(=O)c2ccccc2)c1	-3
CC(=O)c1sc(NC(=O)CCN2C(=O)C3CC=CCC3C2=O)nc1-c1ccccc1 (stereo not given)	-9
CC(C)(C)[C@H]1COC(=O)[C@@H](Cc2ccc(F)cc2)C/C=C\C[C@@H](CC(=O)N[C@H](CO)Cc2ccccc2)C(=O)N1	-2
COc1ccc(O)c(C(=O)c2cnn(C(=O)c3cccc(N(C)C)c3)c2)c1	-4
CCOC(=O)c1c(C)[nH]c(C(=O)NNC(=O)c2ccc(Br)cc2)c1C	-3
O=C(COC(=O)c1cc(S(=O)(=O)N2CCOCC2)ccc1F)NCCc1ccc(F)cc1	-6

The closing 4 entries of the part above lead into the next.
SMILES	Mtb betalactam
CC(C)(C)[C@H]1COC(=O)[C@@H](Cc2ccc(F)cc2)C/C=C\C[C@@H](CC(=O)N[C@H](CO)Cc2ccccc2)C(=O)N1	-2
COc1ccc(O)c(C(=O)c2cnn(C(=O)c3cccc(N(C)C)c3)c2)c1	-4
CCOC(=O)c1c(C)[nH]c(C(=O)NNC(=O)c2ccc(Br)cc2)c1C	-3
O=C(COC(=O)c1cc(S(=O)(=O)N2CCOCC2)ccc1F)NCCc1ccc(F)cc1	-6
C#CCOCCOCCOCCNc1nc(N2CCN(C(=O)[C@H](CCC(=O)O)n3cc(CN)nn3)CC2)nc(N2CCN(C(=O)[C@H](CCCN=C(N)N)n3cc(C(N)[C@@H](C)CC)nn3)CC2)n1 (stereo not given in full)	-4
COc1ccc(NC(=O)c2ccc(NC(=O)CN3CCC(C(N)=O)CC3)cc2)cc1	-3
CCCCn1c(SCC(=O)Nc2ccc(NC(C)=O)cc2)nc2ccccc2c1=O	-6
c1csc(CNc2ncnc3ccc(-c4ccc5c(c4)OCCO5)cc23)c1	97
CSc1ncccc1C(=O)OCC(=O)c1ccc(C)s1	-3
CC(C)n1cnc2c(NCc3ccccc3)cc(N[C@H](C)CO)cc21	83
O=C(c1ccc2c(c1)OCO2)N1CCc2ccccc21	-6
O=C(CNC(=O)c1ccc(Cl)cc1Cl)OCc1nnc(-c2ccccc2Br)o1	1
C=C1C[C@H](O[C@@H]2O[C@H](CO)[C@@H](O)[C@H](O)[C@H]2O)[C@@H]2[C@H](OC(=O)[C@H]2C)[C@H]2[C@H](C)[C@@H](O)C[C@@H]12	-2
COc1ccc(C(=O)NCC(=O)OCc2ccc(Cl)cc2Cl)cc1OC	-8
N#Cc1ccc(CSc2ccc(S(=O)(=O)N3CCCC3)cn2)cc1	-2
CCOC(=O)c1ccc(NC(=O)c2nc[nH]c2C(=O)NCCNC(=O)c2[nH]cnc2C(=O)Nc2ccc(C(=O)OCC)cc2)cc1	7
COc1ccc(Cl)cc1C(=O)OCC(=O)Nc1sccc1C(N)=O	6
COc1ccc(CCNC(=O)COC(=O)/C=C/c2ccc3c(c2)OCO3)cc1	1
CN(C)CCC=C1c2ccccc2C=Cc2ccccc21	-1
CCN(CC(=O)Nc1ccc(NC(C)=O)cc1)C(=O)c1ccc(NC2CC2)c([N+](=O)[O-])c1	-9
COCCn1cnc2c1c(=O)n(Cc1ccc(C#N)cc1)c(=O)n2Cc1ccccc1	-1
Cc1c(C)c2cccnc2c2ncccc12	74

In the list so far, these contain a tert-butyl group:
SMILES	Mtb betalactam
CC(C)(C)OC(=O)NCCCC[C@@H](C(=O)NCCCCCCCCCCC(=O)N1CCN(C(=O)OC(C)(C)C)CC1)n1cc(CCCC(=O)O)nn1	-4
Cc1cc(C(=O)NC2CCCc3c2cnn3-c2ccc(C(C)(C)C)cc2)nn1C (stereo not given)	43
CC(C)(C)[C@H]1COC(=O)[C@@H](Cc2ccc(F)cc2)C/C=C\C[C@@H](CC(=O)N[C@H](CO)Cc2ccccc2)C(=O)N1	-2
